Screening results deposited in PubChem BioAssay by ICCB-Longwood Screening Facility, Harvard Medical School.
MgrA-DNA mod: alters Staphylococcus aureus MgrA binding to DNA | inhibition, %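 (about 10 µg/mL by stock and volumes)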 | 0.13% of 84,000 active | fluorescence polarization;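 active = above 50% in either of two replicates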;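 note: 0% = protein plus DNA without compound and 100% = DNA alone without protein; higher means less MgrA bound to DNA so lower polarization; one replicate is shown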
Sa helicase inh: S. aureus DNA helicase inhibition; 0.05% of 120,000 active; purified S. aureus helicase, fluorescence unwinding assay; about half of the hits fall short of the stated cut; inhibition, %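 (tested at about 80 µM)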;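 active = both duplicates at 50% or more, or one of them with a favoured structure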;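 note: 0% = mean of negative control wells and 100% = mean of positive control wells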
* hit, by the source's call; · = no result given; & = joins results of further samples. An excerpt; the hit share may differ from the screen's.

Under each structure: MgrA-DNA mod | Sa helicase inh
- CC1CN(c2ccccc2OC(=O)Nc2ccc(OC(F)(F)F)cc2)CC(C)O1 (stereo unspecified)
→ -1.4 | ·
- Cc1ccc(SCc2cc(=O)[nH]c(Nc3nc(C)c4ccccc4n3)n2)cc1
→ -2.3 | 11
- Cc1ccc(-c2noc(COC(=O)c3ccccc3C(F)(F)F)n2)cc1
→ · | -6
- Cc1ccc2nc(NC(=O)CSc3cn(C)c4ccccc34)sc2c1
→ · | -6
- O=S(=O)(c1cccc(-c2nc3ccccc3s2)c1)N1CCOCC1
→ 0.2 | 9
- O=[N+]([O-])c1ccc(OCC(O)CN2CCCN(c3nc4ccc(Cl)cc4s3)CC2)cc1 (stereo unspecified)
→ 0.9 | ·
- N#Cc1ccccc1NC(=O)c1ccc2c(Cl)c3c(nc2c1)CCCC3
→ · | 0
- N#Cc1cc2c(nc1SCC(O)CNc1ccc(Cl)cc1)CCCC2 (stereo unspecified)
→ · | 9
- CN(Cc1ccco1)C(=O)CN1C(=O)/C(=C\c2ccc(C(F)(F)F)cc2)Sc2ccccc21
→ 2.4 | 13
- Cc1cccc(CS(=O)(=O)Cc2ccc(C(=O)NCCCN3CCCC3)o2)c1
→ -0.2 | -2
- O=C(Nc1ccccc1-c1nc2ccccc2s1)C1=COCCO1
→ · | 10
- O=S1(=O)CCC(Nc2nc(CN3CCCCC3)nc3sc4c(c23)CCC4)C1 (stereo unspecified)
→ · | 0
- COc1ccc(OC)c(C2/C(=C(/O)c3ccc(C)cc3)C(=O)C(=O)N2c2cccnc2)c1 (stereo unspecified)
→ · | -16
- CC(C)(C)c1ccc(/C=C/C(=O)NC2CCS(=O)(=O)C2)cc1 (stereo unspecified)
→ -2.8 | -1
- CCOC(=O)c1cc(-c2ccc(Cl)cc2)nc2c1c(=O)[nH]c(=O)n2CC(C)C
→ · | -18
- CCc1ccc(C(=O)COC(=O)c2n[nH]c3ccccc23)cc1
→ · | -7
- CCOc1ccc(C(=O)C(CC(CN2CCOCC2)C(=O)c2ccc(OCC)cc2)CN2CCOCC2)cc1 (stereo unspecified)
→ -0.5 | 8
- O=C(CSc1ncn[nH]1)n1c2ccccc2c2ccccc21
→ -2.6 | 6
- CCN(CC)C(=O)[n+]1ccc(OC)cc1
→ 4.1 | 20
- CCSc1nc2c(c(=O)n1-c1ccccc1OC)SCC2
→ · | 0
- CCOc1ccc2nc(NCCNC(=O)NCc3ccccc3)c(C#N)cc2c1
→ 3.4 | 9
- O=C(Nc1cccc(Cl)c1)c1cc(O)cc(O)c1
→ · | 5
- CCOC(=O)CC1=Nn2c(nnc2-c2cc(Cl)cc(Cl)c2)SC1
→ 4.4 | ·
- CCN1CCN(Cc2ccc(NC(=O)C3CCCN(S(=O)(=O)N4CCC5(CC4)OCCO5)C3)cc2)CC1 (stereo unspecified)
→ · | -24
- Cc1nc2nc(SCC(=O)O)nn2c(C)c1Cc1ccccc1Cl
→ · | -2
- O=C1OC(c2ccc(F)cc2)=C/C1=C/c1ccc(O)cc1
→ · | 32
- COc1ccc2cccc(O)c2n1
→ · | 5
- CC(C)CCn1c(O)c(N=O)c2ccccc21
→ -0.1 | -18
- CCN1C(=O)/C(=C\C=C\c2ccccc2Cl)SC1=S
→ 0.2 | 10
- O=C(Nc1c(C(=O)Nc2ccc(F)cc2)oc2ccccc12)c1ccccc1
→ 0.2 | 13
- Cc1cc(Cl)ccc1OCc1nc(=S)[nH][nH]1
→ · | 3
- O=C(COc1ccccc1F)NCc1nc2ccccc2[nH]1
→ 0.7 | 21
- COc1ccccc1-c1nn(CCC(=O)NCCCN2CCCC2=O)c2nc(C)cc(C)c12
→ · | 16
- COc1ccc(C=C2C(=O)OC3(CCCCC3)OC2=O)cc1OC
→ 2.5 | 7
- COc1cc(NC(=O)CNc2cccc(C#N)c2)cc(OC)c1
→ · | -6
- COC(=O)c1cc(-c2ccc(F)cc2)nc2onc(C)c12
→ · | -25
- CN(C)C(=O)CSc1nc(N)cc(=O)[nH]1
→ · | -17
- CC1=NN(c2nc3ccccc3nc2Cl)C(=O)C1
→ 0.3 | 11
- CCOC(=O)CN1C(=O)S/C(=C/c2ccc(OCC(N)=O)c(OCC)c2)C1=O
→ 1.0 | 7
- C=CCc1c(CCC)nc(-c2ccccn2)[nH]c1=O
→ 5.6 | ·
- Cc1ccc(C(=O)NC(C(=O)O)c2ccccc2)cc1 (stereo unspecified)
→ · | -1
- Cc1c(NC(=O)Cn2c(-c3cscn3)nc3ccccc32)c(=O)n(-c2ccccc2)n1C
→ · | 8
- N#Cc1c(Sc2nnnn2-c2ccccc2)nc(CCc2ccccc2)c2c1CCCC2
→ · | -1
- OC(CC#CCN1CCCC1)(c1ccccc1)C1CCCC1 (stereo unspecified)
→ -2.8 | 7
- Cc1nn(C(C)(C)C)c(OC(=O)c2ccccc2)c1Sc1ccccc1
→ 3.5 | 13
- N#CC1=C(N)Oc2c(oc(CO)cc2=O)C12C(=O)NC1C=CC=CC12 (stereo unspecified)
→ · | 6
- CCOC(=O)c1c(C)oc2c1c1c(c3ccccc32)OCN(C2CC(C)(C)NC(C)(C)C2)C1
→ · | 21
- O=S(=O)(/C=C/c1ccccc1)N1CCN(Cc2cc3c(cc2O)CCC3)CC1
→ · | 0
- CC(CC(=O)C1C(C)C=CCC1(C)C)Nc1ccccc1 (stereo unspecified)
→ -4.0 | -6
- COc1ccc(OC)c(/C=c2\sc3nc4ccccc4n3c2=O)c1
→ · | -118
- Cc1cc(C)n(-c2ncccc2[N+](=O)[O-])n1
→ -0.2 | ·
- COc1ccc(NC(=S)Nc2ccccn2)cc1
→ -2.2 | ·
- Nc1ccc(Cl)cc1C(=O)NCCc1ccc(Cl)cc1
→ 0.4 | ·
- CC(NC(=O)CC1Sc2ccccc2NC1=O)c1ccccc1 (stereo unspecified)
→ · | -25
- Cc1cc(C(=O)COc2ccc3ccc(=O)oc3c2)c(C)n1C
→ · | -5
- CC(C)CSc1ncnc2scc(-c3ccccc3)c12
→ -0.7 | -1
- COC(=O)c1nnn(-c2ccc(F)c(Cl)c2)c1C(=O)OC
→ -1.9 | ·
- CCOC(=O)c1cnn(-c2nc3ccccc3s2)c1/N=C/N(C)C
→ · | 19
- CC(C)(Cc1nc2ccccc2[nH]1)C(=O)O
→ · | 7
- CC(Cc1cccs1)NC(=O)NC1CCCCC1 (stereo unspecified)
→ · | 16

Additional results
SMILES | MgrA-DNA mod | Sa helicase inh
CCOC(=O)C1CCCN(C(=O)c2ccc(OC)c(OC)c2)C1 (stereo unspecified) | 0.1 | ·
O=C(N1CCCCC1)N1c2ccccc2Sc2ccccc21 | -0.8 | -22
COc1ccccc1-c1cc(-c2ccc(O)cc2)nc(N)c1C#N | -1.5 | 15
O=C(COc1ccc2ccccc2c1)Oc1ccc(C(=O)c2ccccc2)cc1 | 2.5 | 12
O=C(O)Cc1ccc(S(=O)(=O)N2CCOCC2)s1 | · | 9
O=C(NC1CCCCC1)NC1CCN(Cc2nnnn2Cc2ccc3c(c2)OCO3)CC1 | 1.1 | 17
Nc1nc(SCC(=O)N2CCCc3ccccc32)n(-c2ccccc2)n1 | · | 16
O=c1[nH]nc(-c2ccccc2)c2ccccc12 | -0.4&0.4 | 14
CCCc1nnc(N(Cc2ccc(Cl)cc2)C(=O)c2ccc(C)cc2)s1 | -3.4 | 7
CCC1CCCCN1CC(=O)c1ccco1 (stereo unspecified) | · | -8
CCC/C(=N\O)c1ccccn1 | -0.1 | ·
O=S1(=O)CCN(Cc2cccs2)CC1 | 0.3 | ·
O=C(CC(CC(=O)c1ccc(Br)cc1)c1cccnc1)c1ccc(Br)cc1 | -0.3 | ·
COc1ccc(C2C(C(=O)NC3CCCCC3)c3ccccc3C(=O)N2c2ccc(OC)cc2)cc1 (stereo unspecified) | -0.2 | 4
O=C(CSC1=NCCN1)NC(c1ccccc1)c1ccccc1 | 0.3 | 7
O=C(Nc1nc(CSc2nc3ccccc3s2)cs1)C1CC1 | · | 23
COCCCn1c(=N)c(C(=O)N2CCCCC2)cc2c(=O)n3cccc(C)c3nc21 | 0.0 | 18
CC1(c2ccccc2)CC(C)(C)N(C(=O)C(F)(F)F)c2ccccc21 (stereo unspecified) | -1.9 | 5
CCOC(=O)C(=CNNS(=O)(=O)c1cc(C(F)(F)F)cc(C(F)(F)F)c1)C(=O)OCC | 0.3 | ·
C[C@]12C=C(C#N)C[C@@]1(C)C=C(C#N)C2 | · | -11
CCOc1csc2nc(C)cc(C)c12 | -0.4 | 9
CC(=O)Oc1ccccc1OC(C)c1nn(C(C)=O)c2ccccc12 (stereo unspecified) | -2.0 | 5
CN1C(=O)CC(C(=O)O)SC1=Nc1cccc(F)c1 (stereo unspecified) | 0.0 | -2
CCCN1C(=S)NC2c3ccccc3OC1(C)C2C (stereo unspecified) | -1.1 | 13
CC/C(O)=C1/C(=O)CC(C)(C)CC1=Nc1cccc2ccccc12 | -0.2 | -2
CC(C)c1nnc(NC(=O)c2ccc(-c3ccccc3)cc2)s1 | · | -2
CCOC(=O)c1oc2ccc(Br)cc2c1COC(=O)c1cccnc1Cl | · | 7
Cc1cc(C)n(-c2ccc(C(=O)O)cc2)n1 | -0.5 | -5
Cc1cc(C)n(CC(O)COc2ccccc2C(=O)Nc2ccccc2)n1 (stereo unspecified) | · | -3
O=C(c1cccnc1)N1N=C(C(F)(F)F)CC1(O)c1cccnc1 (stereo unspecified) | 2.2 | -4
O=C(NCc1ccccc1)Nc1ccccc1 | -1.6 | ·
CCOC(=O)C1=C(C)N(c2ccc(F)cc2)C(=O)C1CC(=O)Nc1ccc(C(=O)OCC)cc1 (stereo unspecified) | 1.2 | ·
Fc1cccc(F)c1CSc1nc2ccccc2[nH]1 | -0.5 | 4
O=C(Cn1ccc(=O)[nH]c1=O)NC1CCCCCC1 | · | 5
Cc1cc(C)n(-c2ccc(C(=O)NC(C)c3ccc(S(N)(=O)=O)cc3)cc2)n1 (stereo unspecified) | · | 13
Cc1ccc(NC(C)C(=O)N/N=C/c2cccnc2)cc1 (stereo unspecified) | · | -7
CCN(CC)C(=O)n1nnc2ccccc21 | 1.2 | 5
c1ccc(C(c2ccccc2)N2CCC2)cc1 | 3.9 | ·
O=C(C1=C(O)/C(=C/c2cccc(O)c2)CCC1)C(F)(F)F | · | 14
Fc1ccc(Cc2nn[nH]n2)c(Cl)c1 | -1.6 | 1
OCCSc1ncnc2sccc12 | · | -12
CC(C)(C)OC(=O)Nc1ncnc2c1ncn2C1OC(CO)C2OC(C)(C)OC21 (stereo unspecified) | 0.1 | ·
Cc1ccc(S(=O)(=O)Oc2ccc(OCc3ccccc3)cc2)cc1 | 0.4 | ·
COc1ccc(-n2nc3c(c2NC(=O)c2ccc(S(=O)(=O)N4CCCCC4)cc2)CSC3)cc1 | -1.8 | ·
Cc1ccc(CN(C2CCCC2)S(=O)(=O)c2ccc(S(=O)(=O)N3CCCC(C)C3)cc2)o1 (stereo unspecified) | 0.4 | -4
O=C(CSc1nnc2sc3ccccc3n12)N1CCc2ccccc2C1 | -2.4 | -1
CCNc1nc2[nH]c(=O)c3c(c2s1)OC(N)=C(C#N)C3c1ccc(C)cc1 (stereo unspecified) | · | -29
O=C1C2ON(c3ccccc3)C(c3ccncc3)C2C(=O)N1c1cccc(C(F)(F)F)c1 (stereo unspecified) | · | 0

Overlap with the part before: 6 entries, then new ones.
SMILES | MgrA-DNA mod | Sa helicase inh
Cc1ccc(S(=O)(=O)Oc2ccc(OCc3ccccc3)cc2)cc1 | 0.4 | ·
COc1ccc(-n2nc3c(c2NC(=O)c2ccc(S(=O)(=O)N4CCCCC4)cc2)CSC3)cc1 | -1.8 | ·
Cc1ccc(CN(C2CCCC2)S(=O)(=O)c2ccc(S(=O)(=O)N3CCCC(C)C3)cc2)o1 (stereo unspecified) | 0.4 | -4
O=C(CSc1nnc2sc3ccccc3n12)N1CCc2ccccc2C1 | -2.4 | -1
CCNc1nc2[nH]c(=O)c3c(c2s1)OC(N)=C(C#N)C3c1ccc(C)cc1 (stereo unspecified) | · | -29
O=C1C2ON(c3ccccc3)C(c3ccncc3)C2C(=O)N1c1cccc(C(F)(F)F)c1 (stereo unspecified) | · | 0
OC(COc1ccc(Cl)c(Cl)c1)CN1CCC(Nc2nccc(C(F)(F)F)n2)CC1 (stereo unspecified) | -0.3 | ·
O=C(O)c1ccccc1-c1ccc(/C=N/N2C(=O)C3C4C=CC(C4)C3C2=O)o1 (stereo unspecified) | 0.3 | 1
CCOC(=O)C(C)Sc1nc(C)cc(C)c1C#N (stereo unspecified) | · | 18
COC(=O)C(C)N1C(=O)S/C(=C/c2cc(C)n(-c3ccc4c(c3)OCO4)c2C)C1=O (stereo unspecified) | 1.1 | 13
c1ccc(-c2cn(-c3ccccc3)c3ncnc(NCCCN4CCOCC4)c23)cc1 | · | 5
Cc1n[nH]c(C)c1C(C)C(=O)N1CCN(c2ccccn2)CC1 (stereo unspecified) | · | 3
COc1cccc(NC(=O)c2cc(=O)c3ccccc3o2)c1 | · | -18
c1ccc2c(c1)ncn2CCn1cnc2ccccc21 | 1.2 | -3
O=c1n(-c2ccccc2)c(=O)n(Cc2ccccn2)n1Cc1ccccn1 | · | -10
CCc1nnc2c(N(C)C3CCCCC3)nc3ccccc3n12 | · | -6
CSc1cccc(NC(=O)C2CCN(S(=O)(=O)c3c(C)n[nH]c3C)CC2)c1 | 0.4 | 12
COc1ccccc1NS(=O)(=O)c1ccc2oc(SCC(=O)NC(N)=O)nc2c1 | · | -12
CCOC(=O)c1cn(CC(=O)NN)nc1C(F)(F)F | 1.1 | ·
Cc1nn(-c2ccc(F)cc2)c(Cl)c1/C=N/NC(=O)C1CC1 | · | 3
CCn1c(=O)cc(SCC(=O)NCc2ccccn2)c2ccccc21 | · | 5
CCC(=O)Nc1ccc(S(=O)(=O)NC(C)(C)C)cc1 | · | 12
O=C(c1ccc(C#Cc2ccccc2)o1)N1CCCCC1 | -1.4 | ·
COc1ccc2nc(NC(=O)CCCCl)sc2c1 | 0.5 | 4
C(=C\c1ccccc1)/CSc1nc2ccccc2[nH]1 | 0.1 | -8
